Rango dissoc inh = inhibitors of RanGTP-induced Rango-importin beta complex dissociation | hit rate 0.071% among 340,000 | O95149+P62826 | Potency, µM (series often up to 46.1 µM), inactives show top-dose activity change, negative = inhibition | Biochemical FRET Rango-importin beta, RanGTP-induced dissociation; active means falling FRET ratio curve, often poorly fitted, with flat reads before Ran was added; inconclusive means other falling curves, or compound fluorescence or quenching; inactive means flat or rising ratio curve;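 note: potency is the fitted concentration of half-maximal effect; % of control where 0% means no effect; nearly all actives have a fitted effect of over 45% in size; -100% = wells without RanGTP and RCC1; the record marks most hits as doubtful in a second field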
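Rango/importin beta premix (0.1/0.25 uM final), PBS + 1 mM DTT + 0.02% Tween-20 + 0.1% BSA; cpd 5 min RT; FRET pre-read; + RanGTP-RCC1 (0.6 uM Ran, 2 mM GTP, 0.2 uM RCC1); 45 min RT; FRET post-read, ex 430, em 486/530 nm.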
miR-21 FLuc = miR-21 reporter, rising signal; HeLa miR-21 FLuc reporter, luciferase, 48 h; Potency, µM (series often up to 38.3 µM), without a hit: at the highest dose reporter change, positive = more light; 340,000 tested, under 10 active; AID 2288; active = well fitted rising curve with a large enough effect; inconclusive = small, poorly fitted or top-dose-only effect; inactive = no such curve, though single readings can be large or run the other way;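 note: % of control where 0% means no effect; miR-21 action dims this reporter so a rising signal means less miR-21 action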
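HeLa miR-21-FLuc reporter line, endogenous miR-21; 2000 cells/well in DMEM/10% FBS; compound titration up to ~40uM final, 48 h, 37 degree Celsius; luciferase detection reagent, 15 min lysis, CCD luminescence.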
GLA inh pH 4.5 = alpha-galactosidase A (human) inhibition, pH 4.5; 230,000 tested, under 10 active; activity change, negative = inhibition, % at 105 µM; P06280; purified enzyme, 4-MU-alpha-Gal fluorescence, pH 4.5; AID 1467; inconclusive = small, poorly fitted or top-dose-only inhibition, or a rising curve; inactive = flat fitted curve, though single readings scatter; no compound was filed as active;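 note: 0% = full activity with enzyme and -100% = basal without enzyme; dose as in the result columns while the protocol names 77 µM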
Target sequence (P06280 whole entry, looked up): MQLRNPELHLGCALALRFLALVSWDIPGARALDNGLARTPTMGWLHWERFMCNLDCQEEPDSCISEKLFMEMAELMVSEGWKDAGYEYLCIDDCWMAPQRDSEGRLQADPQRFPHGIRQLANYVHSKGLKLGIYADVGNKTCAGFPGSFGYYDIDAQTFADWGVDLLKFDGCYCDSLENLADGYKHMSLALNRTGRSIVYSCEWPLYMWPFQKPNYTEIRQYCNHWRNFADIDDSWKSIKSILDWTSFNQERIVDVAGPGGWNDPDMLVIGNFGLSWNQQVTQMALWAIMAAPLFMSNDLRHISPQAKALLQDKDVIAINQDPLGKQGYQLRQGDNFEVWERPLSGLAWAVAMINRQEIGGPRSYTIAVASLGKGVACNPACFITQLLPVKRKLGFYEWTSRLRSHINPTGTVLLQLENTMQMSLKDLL
Rango-impB inh = inhibitors of Rango-importin beta complex formation; AID 540263; Q14974; Potency, µM (titrated, usually from 92.2 µM), inactives show at the highest dose inhibition of complex formation; Rango CFP/YFP FRET sensor + importin beta, 45 min; hit rate 0.031% among 340,000; active = rising FRET ratio curve, often small or poorly fitted; inconclusive = mostly compound fluorescence or quenching in the first reads; inactive = flat curves in all reads;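 note: potency is the fitted concentration of half-maximal effect; 0% = DMSO wells and 100% = buffer wells lacking importin beta; nearly all actives have a fitted effect of over 15% in size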
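FRET biosensor (snurportin 1 IBB flanked by EYFP and cerulean), 50 nM, with compound 5 min, then 0.125 microM importin beta in PBS, 1 mM DTT, 0.02% Tween-20, 0.1% BSA. CFP/YFP ratio read after 45 min at room temperature; pre-read flags interference.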
Numbers without * were called inactive; ? = inconclusive; . = no result given. This is a subset; the hit share may differ from the screen's.

SMILES	Rango dissoc inh	miR-21 FLuc	GLA inh pH 4.5	Rango-impB inh
Cc1cc2oc(C(=O)Nc3c(C)n(C)n(-c4ccccc4)c3=O)c(C)c2cc1Cl	0%	-7%	4	-2.5%
Cc1c(NC(=O)c2c([N+](=O)[O-])cnn2C)c(=O)n(-c2ccccc2)n1C	11%	0%	.	-2.8%
Cc1ccc(S(=O)(=O)[N-]c2nc3ccccc3nc2-n2cc[n+](CCC(C)C)c2)cc1	?	2%	-7	?
Cc1nnsc1SCCNC(=O)c1ccc(F)cc1	32%	-17%	6	-6.2%
O=C(Nc1ccc2c(c1)nc1n2CCOC1)c1ccco1	3%	-44%	10	5.6%
CCOc1ccccc1N1CCN(C(=O)c2cc(-c3cc(OC)ccc3OC)nc3ccccc23)CC1	1%	16%	.	-0.4%
O=S(=O)(Nc1nc2ccccc2nc1Cl)c1cccc(C(F)(F)F)c1	27%	18%	.	-3.9%
O=C(CCCSc1nc2ccccc2[nH]1)NCc1ccccc1	5%	-5%	1	-2.0%
Cc1nc(-c2ccccc2)sc1C(=O)Nc1ccccc1F	16%	-41%	.	0.5%
Cc1ccc(C)c(NC(=O)COC(=O)CCNC(=O)c2ccco2)c1	-14%	.	.	-1.1%
Cc1cc(C(=O)N2CCCC(N3CCN(c4ccc(F)cc4)CC3)C2)c(C)o1 (stereo not given)	2%	19%	.	2.3%
O=C(O)CSCCc1ccccn1	-10%	0%	2	-0.2%
COCCn1c(=O)[nH]c(=O)c2c1nc(-c1cc(Br)c3c(c1)OCO3)n2Cc1ccccc1	-7%	-23%	-9	-4.6%
COc1ccc(C(CNC(=O)C(C)c2ccc3cc(OC)ccc3c2)N(C)C)cc1 (stereo not given)	1%	-9%	.	2.5%
CCC1C(=O)NCCN1C(=O)c1ccc2nc(Cc3cccc(Cl)c3)oc2c1 (stereo not given)	0%	1%	.	0.4%
Cc1ccc(NC(=O)Nc2ccc(F)cc2)nc1	-5%	-25%	-11	5.1%
CC(C)n1cnc2c(NCc3ccccc3)cc(Cc3ccc(F)cc3)cc21	6%	.	.	-0.2%
COc1ccc(OCC(=O)Nc2ccc(N3CCOCC3)c(Cl)c2)cc1	-12%	-5%	-4	0.1%
O=C(C(Br)=Cc1ccccc1)c1ccccc1	3%	.	.	0.2%
COc1ccc(CNC(=O)C2CCN(c3nc(OC)nc(OC)n3)CC2)cc1	1%	-6%	8	-1.5%
CC(C)(C)C(=O)Nc1nc2ccc(S(C)(=O)=O)cc2s1	11%	-26%	0	-1.4%
CC(=O)Nc1ccc(NC(=O)COc2ccccc2C(=O)Nc2cccc(Cl)c2Cl)cc1	2%	-1%	-4	-1.4%
O=C(CNC(=O)Cc1ccccc1)NCC(=O)OCC(=O)c1ccccc1Cl	-7%	-1%	7	-0.8%
O=C(Cn1cnc2c(nnn2-c2ccc(F)cc2)c1=O)NCc1ccco1	-1%	-3%	5	4.2%
Cc1ccc(Nc2nc(Cl)nc(N(C)C#N)n2)cc1	-8%	-1%	1	-0.9%

Other compounds.
SMILES	Rango dissoc inh	miR-21 FLuc	GLA inh pH 4.5	Rango-impB inh
N#C/C(=C(/O)c1ccccc1F)c1nc2cc(C(F)(F)F)ccc2s1	14%	-11%	6	3.1%
CC(C)c1nnc(NC(=O)CCC(=O)N2CCC(Cc3ccccc3)CC2)s1	-8%	6%	.	-2.1%
CCCCN1CCNC[C@H]1Cc1ccc(O)cc1	11%	.	.	-2.7%
CCC(=O)c1ccc(N2CCN(C(=O)c3ccc(Br)cc3)CC2)c(F)c1	-3%	-2%	1	-3.2%
O=C(c1cccnc1)N1CCN(Cc2ccccc2Br)CC1	11%	-4%	3	1.0%
O=C1/C(=C\c2ccc(O)cc2)SC(=S)N1/N=C/c1ccc(O)cc1	?	-8%	-1	?
NS(=O)(=O)c1ccc(NN=C2CCN(Cc3ccccc3)CC2)c([N+](=O)[O-])c1	4%	0%	2	-1.4%
Cc1cccn2c(CN(C)CC3Cc4ccccc4O3)c(C(=O)N3CCCCC3)nc12 (stereo not given)	-1%	-5%	-2	-3.8%
CC(C)(C)c1ccc(C(=O)NCC(=O)OCc2ccc([N+](=O)[O-])cc2)cc1	-2%	-5%	2	-0.9%
Cc1cccn2c(=O)c3cc(C#N)c(=N)n(CCCN4CCOCC4)c3nc12	?	.	.	?
COc1ccc(S(=O)(=O)N2CCOCC2)cc1C(=O)N(C)Cc1ccccc1F	-6%	.	.	-2.3%
OC(COc1ccccc1)CN1CCCCC1 (stereo not given)	1%	.	.	-0.9%
COc1ccc(C2c3[nH]c4ccccc4c3CCN2Cc2ccoc2)c(F)c1 (stereo not given)	7%	17%	-19	-0.1%
O=C(C1CCCC1)N1CCC(CC2CC(c3ccc(Cl)cc3)=NO2)(C(=O)NCC2CCCCC2)CC1 (stereo not given)	-3%	5%	.	-3.8%
COc1ccc(/C=C/c2nnc(NC(=O)c3ccco3)s2)cc1	?	-14%	-9	?
O=c1c(-c2nnc(SCc3ccc(Cl)cc3Cl)o2)cccn1Cc1ccccc1	-25%	2%	?	-2.7%
O=C(/C=C/c1ccccc1)NC(=S)NNC(=O)c1cnccn1	-2%	5%	1	-3.2%
O=C(Cn1nnc(-c2ccc(S(=O)(=O)N3CCCC3)cc2)n1)NCC1CCCO1 (stereo not given)	-20%	-5%	-9	-3.0%
COc1ccccc1S(=O)Cc1ccc(C(=O)NC2CCCC2)o1 (stereo not given)	-2%	-3%	-13	-1.3%
CC(C)CN(C(=O)COc1ccc2ccc(=O)oc2c1)C1CCS(=O)(=O)C1 (stereo not given)	5%	-5%	.	-1.1%
O=C(NCCC(=O)N1CCc2ccccc21)c1ccco1	-2%	-54%	.	-2.1%
Cc1ccc(C)c(NC(=O)CCC(=O)NNC(=O)c2cccc([N+](=O)[O-])c2)c1	-6%	0%	0	2.0%
O=C(CCC(=O)N(CC(=O)NC1CCCCC1)c1ccc2c(c1)OCCO2)Nc1ccccn1	.	-4%	3	.
Cc1cc2[nH]c3ccccc3c2c(C)n1	-11%	26%	-6	-6.3%
O=C(c1cccnc1Cl)N(Cc1ccccc1)Cc1ccccc1	-10%	6%	-3	2.7%

Additional entries follow.
SMILES	Rango dissoc inh	miR-21 FLuc	GLA inh pH 4.5	Rango-impB inh
CC/C(=N\Nc1ccccc1[N+](=O)[O-])c1ccc(O)cc1	-7%	-50%	-11	-1.6%
CC1CCCN(C(=O)N2c3ccccc3Sc3ccccc32)C1 (stereo not given)	8%	14%	-2	-0.6%
CCC(C)C(=O)Nn1c(C2CC2)nc2cc(OC)c(OC)cc2c1=O (stereo not given)	-7%	3%	1	?
CCC(=O)Nc1ccc(C(=O)Nc2ccc3c(c2)C(=O)N(CC2CCCO2)C3=O)cc1 (stereo not given)	?	-6%	7	-3.8%
Cc1ccccc1-c1nnn(CC(=O)c2ccc(S(=O)(=O)N3CCCC3)cc2)n1	-6%	10%	-21	2.9%
COc1cc(OC)cc(OC(=O)C2CCN(C(=O)c3ccc(F)cc3)CC2)c1	23%	.	.	-0.3%
Cn1ncc([N+](=O)[O-])c1C(=O)N/N=C/c1ccc(F)cc1	-8%	-13%	-2	-1.5%
COc1ccc(NC(=O)Cn2nnc3sc4c(c3c2=O)CC(C)(C)OC4)cc1	12%	6%	-3	-0.9%
Cc1ccccc1CN1CCN(c2nc3ccccc3s2)CC1	-19%	-57%	.	-0.4%
O=C(CSc1ncccn1)N1CCc2ccccc2C1	0%	-16%	6	2.4%
CCOC(=O)c1sc(NC(=O)/C=C/c2ccccc2)nc1C	-2%	-13%	-2	4.1%
COc1cc(OC)cc(C(=O)Nc2nc(CC(=O)NCc3ccc(F)cc3)cs2)c1	-13%	.	.	-0.1%
COc1cccc(-c2cc(C(F)(F)F)n3nc(N)nc3n2)c1	-19%	-23%	10	?
O=C(c1ccco1)N1CCN(C(=O)C(c2ccccc2)c2ccccc2)CC1	-1%	-2%	-4	?
COc1ccc(N=C2CC(C)(C)CC(=O)/C2=C(/O)c2ccccc2)cc1	3%	-4%	1	-0.8%
COc1cc(NC(=O)Nc2cccc([N+](=O)[O-])c2)cc(OC)c1	0%	28%	2	-3.6%
O=C(O)C(Cc1ccccc1)N1C(=O)C2CCCCC2C1=O (stereo not given)	-4%	-6%	-6	0.5%
CCN(CC)S(=O)(=O)c1ccc(NC(=O)C2COc3ccccc3O2)cc1 (stereo not given)	28%	-25%	-2	0.2%
N#C/C(=C\c1ccc(Cl)cc1)c1nc(-c2ccco2)cs1	5%	-16%	5	-3.5%
CCN(C[C@H]1N[C@@](Cc2ccccc2)(C(=O)OC)[C@H]2C(=O)N(C)C(=O)[C@@H]12)S(=O)(=O)c1ccccc1	-6%	.	.	2.0%
CC1CCc2sc(C(=O)NCC3CCCO3)cc2C1 (stereo not given)	-5%	.	.	3.3%
CC(C)c1ccc(N(CC(=O)NCc2ccco2)C(=O)CCC(=O)Nc2ccccn2)cc1	-13%	-8%	.	-1.0%
CC1(C)CC(=O)c2cnc(NC(=O)CSc3nc4ccccc4o3)nc2C1	3%	-28%	7	-0.2%
CCCCn1c(SCN2C(=O)c3ccccc3C2=O)nc2cc(S(N)(=O)=O)ccc21	27%	1%	2	-5.0%
O=C(COc1coc(CN2CCc3ccccc3C2)cc1=O)Nc1ccc([N+](=O)[O-])cc1	12%	.	.	-2.7%

Entries of single compounds, quoted from the list.
CCCCn1c(SCN2C(=O)c3ccccc3C2=O)nc2cc(S(N)(=O)=O)ccc21 as listed: Rango dissoc inh: 27%; miR-21 FLuc: 1%; GLA inh pH 4.5: 2; Rango-impB inh: -5.0%
CC1CCCN(C(=O)N2c3ccccc3Sc3ccccc32)C1 (stereo not given) as listed: Rango dissoc inh: 8%; miR-21 FLuc: 14%; GLA inh pH 4.5: -2; Rango-impB inh: -0.6%

Next part.
SMILES	Rango dissoc inh	miR-21 FLuc	GLA inh pH 4.5	Rango-impB inh
CCN1C(=O)/C(=C/N2CCc3ccccc32)SC1=S	?	-26%	1	?
COc1ccc(NC(=O)CCc2nnc3ccc(NCc4ccc5c(c4)OCO5)nn23)cc1	-18%	3%	.	-0.7%
Cc1cc(Cl)cc(C)c1OCCCCn1ccnc1	6%	-1%	9	9.5%
COc1ccc(N2CCN(C3CCCN(S(=O)(=O)c4ccccc4)C3)CC2)cc1 (stereo not given)	-11%	-2%	.	1.1%
O=C(Cn1nc(-c2ccccc2)ccc1=O)Nc1ccc(N2CCN(C(=O)c3ccccc3)CC2)cc1	-3%	-6%	-5	-0.3%
Cc1cccc(OCc2nnc(SCc3nc4ccccc4c(=O)[nH]3)o2)c1	2%	-1%	-4	-0.7%
Cc1cc(C)cc(NC(=O)c2ccc(S(=O)(=O)NCc3cccnc3)cc2)c1	0%	2%	.	4.1%
COC(=O)c1nc(NC(=O)c2cc(OC)c(OC)c(OC)c2)n[nH]1	-3%	0%	.	?
Nc1c(C(=O)CSc2nccn2-c2ccc(Cl)cc2)c(=O)[nH]c(=O)n1C1CC1	29%	.	.	2.2%
O=C(O)C1CC(c2cccc(Br)c2)=NO1 (stereo not given)	5%	2%	8	-1.1%
O=C(c1cc(-c2cccc(O)c2)on1)N1CCN(C(c2ccccc2)c2ccccc2)CC1	2%	21%	-3	0.5%
CC(C)(C)c1nc2ccc(NS(=O)(=O)c3ccc(F)c(F)c3F)cc2[nH]1	-1%	4%	.	3.9%
O=C(Nc1cnn(Cc2ccc(Cl)cc2)c1)C1CCCC1	5%	-22%	-10	0.5%
Cc1cc(-c2cc(C(=O)Nc3ccccc3)on2)nc(NCC2CC2)n1	-2%	.	.	-4.1%
Clc1ccc(-c2cn3c(n2)-c2ccccc2C3)cc1Cl	2%	-17%	3	3.6%
CCc1ccccc1N(CC(=O)NCc1ccco1)C(=O)c1snc(C(N)=O)c1N	-2%	5%	8	-2.3%
O=C(C1CCCN(S(=O)(=O)c2ccc(F)cc2)C1)N1CCCC1 (stereo not given)	16%	-1%	-5	-1.0%
O=C(NNC(=O)[C@H]1CC=CC[C@H]1C(=O)O)c1ccc(Cl)cc1Cl	1%	-7%	14	0.3%
